AF4-AF9 inh: MLL-AF4/AF9 protein interaction inhibition. AlphaScreen, biotin-AF4 peptide binding to FLAG-AF9. inhibition, % at 10 µM. 350,000 tested, 0.47% active;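 active = every replicate reaching a set inhibition limit, whatever the replicate mean, cut at about 25% in these data; inconclusive = mean inhibition reaches that limit but some replicates miss it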;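 also: 0% = plate neutral control median and 100% = total signal loss; the record names both 10 and 1 µM as test concentration; the first replicate is given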
ALR inh: human ALR oxidase inhibition via reduced H2O2 | P55789 | purified ALR, DTT oxidation, H2O2 HRP-luminol luminescence | inhibition, % (no concentration beside the values) | 290,000 tested, 3.8% active | AID 485317;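 active = mean and each replicate at 75% or more; inconclusive = only one of the two met; inactive = neither met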;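 also: stock transfer was 7.5 nL into about 7.5 µL; 0% = neutral wells and 100% = wells with inactivated enzyme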
Target sequence (P55789 whole entry, looked up): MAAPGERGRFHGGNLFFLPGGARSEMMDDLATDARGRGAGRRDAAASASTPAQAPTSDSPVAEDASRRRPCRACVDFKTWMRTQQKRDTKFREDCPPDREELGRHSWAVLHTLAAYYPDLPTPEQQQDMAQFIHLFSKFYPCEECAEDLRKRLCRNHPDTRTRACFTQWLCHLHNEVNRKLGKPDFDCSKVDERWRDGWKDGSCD
Ecoli growth: inhibitors of Escherichia coli growth; OD600, 23 h; active compounds read low; 330,000 tested, 0.21% active; OD600 absorbance (no concentration beside the values); AID 1053175;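 active = OD600 absorbance below the run mean of sample wells minus 3.6 SD, in any replicate, cut at about 0.56 in these data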;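 also: stock transfer was 300 nL into about 60 µL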
FGF22 binding: shifts melting point of recombinant human FGF22; Q9HCT0; recombinant FGF22 thermal shift, SYPRO orange fluorescence; percent of sucrose octasulfate shift, DMSO zero; calls only at 9.99 µM; AID 651658; 340,000 tested, 1.5% active;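 active = melting point raised past a set limit in the mean and every replicate; inconclusive = no clear call; three in four hits are not shown here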
Target sequence (Q9HCT0 whole entry, looked up): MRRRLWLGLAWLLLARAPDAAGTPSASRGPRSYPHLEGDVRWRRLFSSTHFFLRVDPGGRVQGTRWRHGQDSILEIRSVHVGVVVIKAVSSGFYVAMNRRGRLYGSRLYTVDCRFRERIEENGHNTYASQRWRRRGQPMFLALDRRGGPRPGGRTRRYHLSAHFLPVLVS
Vif A3G: HIV-1 Vif–A3G interaction blockers – biochemical, TR-FRET, GST-Vif 1-94, biotin-A3G peptide, dose response retest, primary screen (AID 1117319) | TR-FRET GST-Vif / biotin-A3G peptide binding; higher % means a stronger effect; test concentration not given here; strong numbers were not always called active | 260,000 tested, 0.57% active | inhibition, %, or IC50 in µM where a hit was titrated;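 active = above the screen mean plus three standard deviations and confirmed in dose response; inconclusive = results disagree or hit not tested in dose response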;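 also: Vif residues 1-94 fused to GST binding biotinylated APOBEC3G peptide 110-148; 0% = full assay without inhibitor and 100% = GST in place of GST-Vif; retest series ran down from 100 µM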
HNF4A DNA FP: change in binding of human HNF4 alpha to DNA; P41235; AID 1224865; HNF4a-FITC DNA binding, fluorescence polarization, 1 h; 360,000 tested, 0.3% active; activity change, % at 10 µM; in the data active = activity change above about 30%, passing the limit was not always enough;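 also: controls were the assay level and a saturating level of protein; the project sought stronger binding though the title names inhibitors; some compounds called inactive have numbers as strong as hits; positive values seem to mean higher polarization but the record does not say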
Target sequence (P41235 whole entry, looked up): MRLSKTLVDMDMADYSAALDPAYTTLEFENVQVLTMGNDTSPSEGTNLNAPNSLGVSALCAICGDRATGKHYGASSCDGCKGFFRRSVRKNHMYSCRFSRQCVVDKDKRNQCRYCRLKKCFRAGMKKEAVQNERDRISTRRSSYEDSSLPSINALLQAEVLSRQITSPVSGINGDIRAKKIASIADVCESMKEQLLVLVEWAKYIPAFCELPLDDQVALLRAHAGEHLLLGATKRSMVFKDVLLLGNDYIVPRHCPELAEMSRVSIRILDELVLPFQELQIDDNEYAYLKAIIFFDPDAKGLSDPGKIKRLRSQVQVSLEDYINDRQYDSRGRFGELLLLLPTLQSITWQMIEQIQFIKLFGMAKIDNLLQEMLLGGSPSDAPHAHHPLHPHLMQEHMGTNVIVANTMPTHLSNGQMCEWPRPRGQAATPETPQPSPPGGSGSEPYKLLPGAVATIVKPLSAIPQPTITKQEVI
rRNA inh HTS: selective bacterial rRNA inhibition in E. coli | 350,000 tested, 1.6% active | GFP signal change (wild-type ribosome), % (no concentration beside the values) | E. coli WT GFP vs humanized-ribosome RFP mutants, fluorescence, 24 h; active compounds read low; DMSO median 0, no signal -100;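 active = significant combined selectivity score with lowered wild-type GFP, culture density cut under 30%, mutant RFP and density less affected; inactive = any of these conditions unmet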; also: one replicate is shown; some compounds called inactive have numbers as strong as hits
rRNA inh HTS OD600: second read-out of rRNA inh HTS, no call of its own (marks repeat the call); OD600 change, %; measured here: OD600 growth;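 optical density of the mix in the first replicate; 0 = DMSO median and -100 = no signal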
rRNA inh HTS RFP: recorded beside rRNA inh HTS, whose call it bears; RFP signal change, %; measured here: RFP humanized mutant strains;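 first replicate; 0 = DMSO median and -100 = no signal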
The depositor's hits bear a star; i = inactive; ? = inconclusive; · = not tested or not shown. An excerpt; count on the stated rates, not on these rows.

SMILES,HNF4A DNA FP,rRNA inh HTS RFP,Vif A3G,FGF22 binding,rRNA inh HTS,rRNA inh HTS OD600,ALR inh,AF4-AF9 inh,Ecoli growth
CCn1c(C(C)NC(=O)c2ccc(OC)c(OC)c2)nc2ccccc21 (configuration not stated),-1.1,·,?,·,·,·,1,·,0.69
O=C(NCc1ccncc1)c1nc(-c2cccs2)no1,0.2,-1.6,2%,i,4,8,-4,0.8,0.7
O=C(Cn1[nH]c(=O)c2ccccc2c1=O)Nc1cccc(S(=O)(=O)N2CCCCCC2)c1,-6.5,-0.7,·,·,0,4,-7,-1.6,0.63
CCOC(=O)CN1CC23C=CC(O2)C(C(=O)NCc2ccc(F)cc2)C3C1=O (configuration not stated),0.9,-1.1,7%,i,5,10,50,0.2,0.77
Cc1nn(CC(=O)N(C)C2(C#N)CCCCC2)c(C)c1[N+](=O)[O-],-1.5,-0.3,-2%,i,14,10,-2,-3.1,0.69
Cc1c(C#N)c(N)nc2c3c(sc12)NC(=O)CC3c1ccc(F)cc1 (configuration not stated),0.9,·,·,·,·,·,-4,·,0.73
O=C(O)C(Cc1ccccc1N(CCO)CCO)N1C(=O)c2ccccc2C1=O (configuration not stated),-2.8,-2.2,-7%,i,6,11,·,-1.4,0.72
CC(=O)Nc1ccc(NC(=O)CSc2nnc(C3CC3)n2C)cc1,-0.1,·,1%,·,·,·,?,·,0.7
COC(=O)COc1ccc(S(=O)(=O)NCCC2=CCCCC2)cc1C,2.7,8.3*,24%,i,-21*,-11*,-9,-2.1,0.74
Cn1cccc1/C=C1/SC(=S)N(CC(=O)O)C1=O,81*,-2.1,16%,i,5,10,32,1.3,0.76
O=C(NNc1ccccc1Br)C(O)(c1cccc(C(F)(F)F)c1)c1cccc(C(F)(F)F)c1,-1.5,·,9%,·,·,·,·,·,0.7
CCOc1ccc(N(CC)S(=O)(=O)c2ccc3c(c2)n(C)c(=O)c(=O)n3C)cc1,-0.8,1.4,-3%,i,0,-8,·,-0.3,0.71
Cn1c(COc2cccc3cccnc23)nnc1SCC(=O)O,-1.0,1.1,·,i,7,11,-22,-2.3,0.74
COc1ccc(C(=O)Nc2sc3c(c2C(=O)O)CC(C)(C)OC3)cc1,-1.1,·,-11%,·,·,·,8,·,0.69
COCCNC(=O)C[C@H]1C[C@@H]2c3cc(NS(C)(=O)=O)ccc3O[C@@H]2[C@H](CO)O1,·,-3.3,·,i,5,6,·,-2.0,·
O=C(Nc1ccccc1C(=O)OCC(=O)c1c[nH]c2ccccc12)c1ccco1,3.7,·,24%,·,·,·,1,·,0.68
COc1cccc(/C=C/C(=O)OCC(=O)N2CCN(c3ccccc3)CC2)c1,-0.8,0.7,3%,i,-8,-6,28,-1.3,0.69
COc1ccc(OC)c(NC(=O)CSc2nnnn2-c2ccccc2F)c1,-2.3,·,33%,·,·,·,-13,·,0.77
CC(=O)OC1c2ccccc2C(=O)N1Cc1ccccc1 (configuration not stated),4.7,-6.2,-3%,i,-9,-13,-3,1.6,0.7
C[C@H](CO)N1C[C@H](C)[C@H](CN(C)Cc2ccc3c(c2)OCO3)Oc2cc(C#CCN(C)C)ccc2S1(=O)=O,·,1.6,·,i,-4,3,·,-7.3,·
CCOc1ccccc1NC(=O)C(=O)NCC1CCCN1CC (configuration not stated),-2.4,·,-2%,·,·,·,2,·,0.71
O=C(C1CCCCC1)N1CC[C@@H]2[C@H]1c1cc(Br)ccc1N[C@@H]2CO,·,-6.4,·,i,-13,-35,·,-3.2,·
COc1ccccc1NS(=O)(=O)c1ccc(O)c(C(=O)OCc2cccc([N+](=O)[O-])c2)c1,-2.5,-12,-2%,i,-7,1,-14,-0.7,0.71
CCOc1ccc(NC(=O)c2cc(S(=O)(=O)N3CCOCC3)cs2)cc1,-0.7,1.2,·,i,3,4,7,-3.0,0.72
O=C(O)/C=C/C(=O)NNc1ncnc2ccccc12,4.0,-2.6,75%,i,14,2,7,-1.9,0.71
CC(=O)NCCc1nc2ccccc2n1Cc1cc(C)ccc1C,0.1,-6.5,?,i,3,-3,-10,0.7,0.7
CC1(C)CC(=O)C(Sc2ccccc2C(=O)O)=C(O)C1,-7.2,16,2%,i,6,4,-7,0.3,0.66
C[C@@H]1CN([C@H](C)CO)C(=O)c2cccc(NC(=O)Nc3ccc4c(c3)OCO4)c2O[C@H]1CN(C)S(=O)(=O)c1cn(C)cn1,·,-1.4,·,i,-5,5,·,-1.8,·
CCOC(=O)c1ccc(-c2ccc(CO)o2)cc1,-0.5,·,2%,·,·,·,28,·,0.66
COC(=O)c1ccccc1S(=O)(=O)N1CCC(C(=O)OCc2cccc(OC)c2OC)CC1,-15,0.6,-8%,i,-4,-10,-4,-4.1,0.67
O=C(O)CCC(=O)Nc1sc2c(c1C(=O)Nc1cccc3ccccc13)CCCCC2,1.5,·,9%,·,·,·,-7,·,0.69
CCOc1ccc2c(c1)-c1c(ssc1=S)C(C)(C)N2C,-0.3,·,1%,·,·,·,46,·,0.69
C(=C\c1ccccc1)/CN1CCN(C(c2ccccc2)c2nnnn2C2CCCCC2)CC1 (configuration not stated),1.5,-20,·,i,-32,-74,·,6.2,·
O=C(Nc1ccc2c3c(cccc13)CC2)c1cccc([N+](=O)[O-])c1,1.1,·,·,i,·,·,-21,8.1,0.67
O=[N+]([O-])c1cccc(-c2ccc(/C=N/NC(=S)NCc3ccco3)o2)c1,1.1,60,13%,i,-5,-3,-3,3.6,·
COc1ccc(Cc2noc(CN(C)Cc3cccc(-n4cccn4)c3)n2)cc1OC,-1.1,0.4,·,i,-2,-9,13,-0.2,0.71
O=C(Nc1ccc(Cl)c(S(=O)(=O)N2CCOCC2)c1)c1cc(-c2ccccn2)nc2ccccc12,3.7,-4.8,-2%,i,8,-10,-7,6.9,0.67
C[C@@H]1CN([C@@H](C)CO)C(=O)c2cc(C#CCc3ccccc3)cnc2O[C@@H]1CN(C)Cc1cccnc1,·,-1.1,·,i,0,-5,·,1.8,·
CCc1nnc(NC(=O)CSc2nnc(-c3cccnc3)n2CC)s1,4.1,·,-1%,·,·,·,-7,·,0.68
CC(C)n1nc(C(=O)Nc2ccccc2N2CCOCC2)c2ccccc2c1=O,-0.3,·,?,·,·,·,5,·,0.73
CCSc1nsc(NC(=O)Nc2ccccc2OC)n1,-3.4,-9.8,·,i,-24,-34,·,-16,0.67
O=C(OCC(=O)N1CCc2ccccc21)c1ccc([N+](=O)[O-])o1,1.5,-7.3,·,i,-18,-5,-17,0.2,0.61
Cc1nnnn1/C(=C\c1ccccc1)C(=O)OCC(=O)Nc1cccc(S(=O)(=O)N(C)C)c1,0.1,7.3,·,i,9,1,·,3.9,0.7
CCOC(=O)N1CCN(C(=O)C2CCN(C(=O)c3cc(OC)cc(OC)c3)CC2)CC1,1.9,·,·,·,·,·,0,·,0.67
Cc1cc(C(=O)Nc2nc3c(C)cccc3s2)c(C)o1,0.6,·,17%,·,·,·,95*,·,0.79
Oc1ccc(-c2nc3c4c(ncn3n2)-c2ccccc2CC42CCCC2)cc1,0.3,·,-8%,·,·,·,-5,·,0.71
CSCCC(N=C1NS(=O)(=O)c2ccccc21)C(=O)NCCc1ccccc1 (configuration not stated),-0.5,2.4,·,i,1,0,-1,2.0,0.69
OCC1(CCCc2ccccc2)CCN(C2CCSCC2)CC1,5.2,1.9,10%,i,10,6,·,-0.7,0.7
CN(C)CCNC(=O)/C(=N\O)c1ccccn1,1.6,0.4,27%,i,13,2,-13,-3.4,·
c1ccc(OCCCN2CCCC2)cc1,3.9,·,5%,·,·,·,-3,·,0.67
COc1ccc(-n2nc3c(c2NC(=O)CBr)CSC3)cc1,-2.2,-5.2,8%,i,2,9,-10,-0.2,0.64
O=C(c1ccc(F)cc1)N1CC[C@@H]2[C@H]1c1cc(C#Cc3ccc(F)cc3)ccc1N[C@@H]2CO,·,0.6,·,i,-1,9,·,-12,·
CN1C(=O)c2cc(NC(=O)NCc3ccccc3)ccc2OC[C@@H]2O[C@@H](CC(=O)O)CC[C@H]21,·,3.0,·,i,4,7,·,-1.9,·
c1ccc(-c2nc(-c3ccc(-c4ccon4)s3)no2)cc1,8.8,-0.7,-6%,i,-2,3,-12,-2.9,0.69
CC1=C(C(=O)Nc2cccc(C(=O)NC(C)C)c2)SCCO1,1.5,-0.5,31%,i,9,16,·,-1.0,0.69
O=C1CCC(C(=O)N2CCCCCC2)CN1CCc1ccc(Cl)cc1 (configuration not stated),3.7,-2.2,·,i,0,9,1,1.6,0.71

Reformatted field by field: two of the compounds above.
> COc1ccc(-n2nc3c(c2NC(=O)CBr)CSC3)cc1
  HNF4A DNA FP = -2.2
  rRNA inh HTS RFP = -5.2
  Vif A3G = 8%
  FGF22 binding = i
  rRNA inh HTS = 2
  rRNA inh HTS OD600 = 9
  ALR inh = -10
  AF4-AF9 inh = -0.2
  Ecoli growth = 0.64

> OCC1(CCCc2ccccc2)CCN(C2CCSCC2)CC1
  HNF4A DNA FP = 5.2
  rRNA inh HTS RFP = 1.9
  Vif A3G = 10%
  FGF22 binding = i
  rRNA inh HTS = 10
  rRNA inh HTS OD600 = 6
  ALR inh = ·
  AF4-AF9 inh = -0.7
  Ecoli growth = 0.7

The results go on.
SMILES,HNF4A DNA FP,rRNA inh HTS RFP,Vif A3G,FGF22 binding,rRNA inh HTS,rRNA inh HTS OD600,ALR inh,AF4-AF9 inh,Ecoli growth
C[C@@H]1CN([C@@H](C)CO)C(=O)c2cc(-c3ccccc3F)cnc2O[C@@H]1CN(C)Cc1cccc(F)c1,·,2.5,·,i,0,-4,·,3.5,·
COC(=O)C1CCN(C(=O)c2ccc(NC(C)=O)cc2)CC1,-2.4,·,1%,·,·,·,-5,·,0.67
CC(=Nc1ccc(C)cc1C)c1sc2ccccc2c1O,21,2.3,-3%,i,-22,-38,·,32*,0.66
Cc1cccc(C(=O)NCC(=O)N2CCN(S(=O)(=O)c3cc(C)ccc3C)CC2)c1,0.1,0.5,5%,i,-1,-14,-5,0.2,0.68
Oc1ccc(/C=N/N(Cc2ccccc2)c2ccccc2)c(O)c1O,-9.8,2.2,·,i,-6,-6,·,27*,·
CC1(C)CC(=O)C2=C(C1)N(Cc1ccco1)C(=O)NC2(C(F)(F)F)C(F)(F)F,-3.2,·,-1%,·,·,·,-11,·,0.7
O=C(C[C@H]1CC[C@H](NS(=O)(=O)c2ccccc2)[C@H](CO)O1)NCCN1CCCCC1,·,-3.2,·,i,1,0,·,1.3,·
CCN(CC)c1ccc(NC(=O)c2cccc(C)c2OC)c(C)c1,4.0,·,8%,·,·,·,99*,·,0.71
C=CCC[C@H](Cc1ccc(F)cc1)C(=O)OC[C@H](Cc1c[nH]c2ccccc12)NC(=O)[C@H](CC=C)CC(=O)N(CCO)Cc1ccccc1,-4.2,-6.4,·,i,1,6,-4,-28,·
Cc1ccccc1C(=O)Nn1cnnc1,5.3,-1.8,-3%,i,8,1,1,0.0,0.71
CN1C(=O)c2cc(NC(=O)C3CCOCC3)ccc2OC[C@H]2O[C@H](CC(=O)NCc3ccccc3F)CC[C@H]21,·,-3.8,·,i,4,7,·,-0.9,·
CC1(C)CC2(C)OC(=N)C1(C#N)C2(C#N)C#N (configuration not stated),-1.1,1.3,-1%,i,14,8,10,-3.8,0.7
COc1ccc2c3c([nH]c2c1)[C@@H](CO)N(C(=O)C1CCOCC1)CC31CCN(C(=O)NC(C)C)CC1,·,-2.5,·,i,1,13,·,-1.3,·
NC(=O)CSc1nc2cc([N+](=O)[O-])ccc2n1-c1cccc(C(F)(F)F)c1,4.0,-2.3*,·,i,-22*,-0.5*,-9,4.1,0.66

Screens (PubChem BioAssay)
